Assay outcomes (PubChem)
INS promoter inh – inhibitors of insulin promoter-driven GFP, primary screen, imaging, TRM-6 cells (human fetal islet line), eGFP reporter, cell count; reporter expression induced with tamoxifen; inhibition, % at 2 µM; 0.9% of 130,000 active; AID 1273, 2008;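 active = inhibition above the mean plus 3 SD, with well images judged a real hit on visual review, cut at about 60% in these data, passing the limit was not always enough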
HSV augment – enhancers of HSV replication in host cells, fold increase, host cell viability | HSV replication augmentation in cells | maximum fold increase | 0.005% of 220,000 active | AID 1956, 2009;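 active = peak rise of 1.5-fold or more in the series; tested in PC3 cells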;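 also: first round at 10 µM; read as green reporter fluorescence; hits show the peak of a series up to 25 µM; 1 = signal of infected wells without compound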
PKD1 inh – inhibitors of human PKD1 kinase, biochemical, fluorescence polarization; Serine/threonine-protein kinase D1 (Homo sapiens), Q15139; PKD1 kinase fluorescence polarization assay; inhibition, %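 (about 10 µM by stock and volumes)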; 0.056% of 200,000 active;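 active = inhibition of 50% or more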;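 also: controls were vehicle for no effect and a reference inhibitor for full effect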
RGS16-Gao – modulators of RGS16 binding to Galphao, primary screen, biochemical, human proteins, multiplexed bead flow cytometry; Regulator of G-protein signaling 16 (Homo sapiens) + Guanine nucleotide-binding protein …; bead-based flow cytometry RGS16-Galphao binding, fluorescence; actives lie on both sides; binding response (% of control), % at 10 µM; 0.38% of 220,000 active;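 active = below 25% or above 175%, edge rows of some plates excepted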;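 also: Galphao activated by GDP with aluminum fluoride before binding; 100% = wells without compound and 0% = beads without RGS; some results beyond the cut were filed as inactive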
Target sequence (O15492 whole entry, looked up): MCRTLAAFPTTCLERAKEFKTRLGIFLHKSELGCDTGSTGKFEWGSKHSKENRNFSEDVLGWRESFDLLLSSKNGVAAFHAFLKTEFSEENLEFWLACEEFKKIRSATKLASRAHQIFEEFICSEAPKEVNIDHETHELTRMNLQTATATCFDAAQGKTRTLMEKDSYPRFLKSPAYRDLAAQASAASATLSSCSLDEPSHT
Target sequence (P09471 whole entry, looked up): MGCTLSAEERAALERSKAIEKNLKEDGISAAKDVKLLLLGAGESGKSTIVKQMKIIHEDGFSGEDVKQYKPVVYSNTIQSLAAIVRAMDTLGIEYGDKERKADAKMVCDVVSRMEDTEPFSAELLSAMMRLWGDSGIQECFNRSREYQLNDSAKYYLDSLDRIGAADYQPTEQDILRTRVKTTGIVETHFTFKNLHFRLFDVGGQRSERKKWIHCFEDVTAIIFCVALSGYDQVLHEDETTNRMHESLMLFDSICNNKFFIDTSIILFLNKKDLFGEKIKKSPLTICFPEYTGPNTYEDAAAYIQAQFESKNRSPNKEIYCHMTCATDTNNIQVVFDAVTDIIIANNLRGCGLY
GALR2 ag – GALR2 receptor agonists, primary screen, cell-based | activation, %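 (tested at 5 µM)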 | 0.48% of 140,000 active | GALR2-expressing cells, agonist activation read-out | Galanin receptor type 2 (Homo sapiens), O43603;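 active = above mean plus 3 SD of all compounds, about 5% in these data, not always enough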;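 also: 0% = vehicle buffer wells and 100% = reference agonist at full effect; tested in CHO reporter cells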
Target sequence (O43603 whole entry, looked up): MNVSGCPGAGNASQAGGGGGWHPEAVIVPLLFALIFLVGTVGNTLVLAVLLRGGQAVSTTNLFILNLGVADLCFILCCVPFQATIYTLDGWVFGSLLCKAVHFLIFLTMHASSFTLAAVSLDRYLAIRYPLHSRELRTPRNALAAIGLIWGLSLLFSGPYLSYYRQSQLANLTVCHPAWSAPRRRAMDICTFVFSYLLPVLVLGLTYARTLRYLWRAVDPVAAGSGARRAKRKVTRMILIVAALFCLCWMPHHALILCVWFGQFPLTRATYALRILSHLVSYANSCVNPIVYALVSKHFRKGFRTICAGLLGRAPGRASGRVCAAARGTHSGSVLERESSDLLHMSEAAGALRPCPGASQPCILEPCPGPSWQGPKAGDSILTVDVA
INS promoter inh cell count – second read-out of INS promoter inh, no call of its own (marks repeat the call); normalized cell count, %; measured here: cell count, toxicity; reference of the scale not given here;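 cells exposed to compound for 48 h; stained nuclei by imaging scaled within each plate; lower means fewer cells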
HSV augment primary fold – second read-out of HSV augment, no call of its own (marks repeat the call); fold increase; compound at 10 µM; measured here: primary screen fold increase 10 uM; tested in PC3 cells;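 GFP signal in the first replicate; 1 = infected wells without compound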
Starred values were filed as active, the others as inactive; i = inactive; / = no result given; [ ] = dose if it differs, or a comment. Rows were taken by chance; 1.3% or so of the library scored in one or more.

Structure	INS promoter inh	INS promoter inh cell count	HSV augment	HSV augment primary fold	PKD1 inh	RGS16-Gao	GALR2 ag
CC(OC(=O)C1=Cc2ccccc2OC1)C(=O)NC1CCCC1 (stereo not drawn)	-12	84	i	0.97	-7	103	-1.2
COc1cccc(N2CCN(C(=O)CSc3ccc(F)cc3)CC2)c1	-36	97	i	1.1	-3	100	/
O=C(C1CCN(Cc2ccccc2)CC1)N1CCCC1	/	/	/	/	2	110	-1.6
CCOc1ccc(NC(=O)N2CCC(NC(=O)C(Cc3ccc(OC)c(OC)c3)NC(C)=O)CC2)cc1 (stereo not drawn)	-14	84	i	1	-1	105	-2.4
CN1C(=O)CSc2ccc(NC(=O)N3CCN(c4ccccn4)CC3)cc21	/	/	i	1.2	-6	89	0.5
Cc1cc(C(=O)N2CCN(c3ccc([N+](=O)[O-])cc3)CC2)no1	43	101	i	0.98	-19	99	-0.6
NCCCCCC(=O)Nc1ccncc1	/	/	i	0.87	/	101	/
S=C(Nc1ccc(Br)cc1)NC1CCCCC1	17	103	i	0.9	-5	105	-0.3
CCc1ccc(NC(=O)/C(C#N)=C/c2cc3ccc(C)cc3nc2N2CCOCC2)cc1	-7	79	i	1	-6	55	-0.8
COC(=O)c1ccc(C(=O)NCCCCO)cc1	-54	68	i	0.91	1	106	/
N#Cc1c(-c2ccc(F)cc2)noc1N	26	89	i	0.88	2	106	-1.4
O=C(O)c1cc(Cl)c2c(c1)[C@@H]1C=CC[C@@H]1[C@H](c1ccc(S(=O)(=O)N3CCOCC3)cc1)N2	57	117	i	1.1	7	90	-0.8
COC(=O)c1sc2ccccc2c1NC(=O)c1ccc(S(=O)(=O)N2CCCCC2C)cc1 (stereo not drawn)	10	121	i	0.92	-4	103	-0.8
O=C(Nc1ccc2oc(=O)ccc2c1)c1ccc(-c2cccc(Cl)c2)o1	/	/	i	0.84	/	90	/
O=C(Cn1cc([N+](=O)[O-])cn1)Nc1nccs1	/	/	i	0.92	-3	104	/
COc1ccc(CNC(=O)c2csnn2)cc1	50	122	i	1.1	6	101	-1.2
COC(=O)[C@@H]1C[C@@]2(O)[C@@H](O)[C@@H](O)[C@@H](O)C[C@H]2N1C/C=C/c1ccccc1	/	/	i	0.9	/	96	/
O=C1CC(c2ccccc2)CC(O)=C1C=NCCc1ccccc1 (stereo not drawn)	-71	103	i	1.2	8	99	/
CN(C)c1ccnc2sc3c(=O)n(-c4ccc(Cl)cc4)cnc3c12	-39	70	/	/	-8	/	-0.9
CSc1ncccc1C(=O)OCn1nnc2ccccc2c1=O	/	/	i	0.96	6	111	-1.8
COc1ccc2c(-c3ccccc3)cc(SC(C)C(N)=O)nc2c1 (stereo not drawn)	/	/	i	0.85	-8	103	/
Cn1c(Cl)c(/C=N/OC(=O)c2ccccc2Cl)c2ccccc21	-233	127	i	1.1	-7	108	-2.1
CN(CCc1cnn(C)c1)Cc1nc(CC2CC2)no1	/	/	i	0.86	4	98	/
C=CCn1c(C(C)NC(=O)c2ccc(C)cc2)n[nH]c1=S (stereo not drawn)	45	131	i	1.1	-4	103	0.6
COc1cccc(NC(=O)CN2C(=O)NC(C)(CC(C)C)C2=O)c1 (stereo not drawn)	-2	203	i	0.91	-8	104	/

Another view of 2 compounds above.
molecule: Cc1cc(C(=O)N2CCN(c3ccc([N+](=O)[O-])cc3)CC2)no1
  INS promoter inh: 43; INS promoter inh cell count: 101; HSV augment: i; HSV augment primary fold: 0.98; PKD1 inh: -19; RGS16-Gao: 99; GALR2 ag: -0.6

molecule: C=CCn1c(C(C)NC(=O)c2ccc(C)cc2)n[nH]c1=S (stereo not drawn)
  INS promoter inh: 45; INS promoter inh cell count: 131; HSV augment: i; HSV augment primary fold: 1.1; PKD1 inh: -4; RGS16-Gao: 103; GALR2 ag: 0.6

The listing picks up, starting 3 compounds before the break.
Structure	INS promoter inh	INS promoter inh cell count	HSV augment	HSV augment primary fold	PKD1 inh	RGS16-Gao	GALR2 ag
CN(CCc1cnn(C)c1)Cc1nc(CC2CC2)no1	/	/	i	0.86	4	98	/
C=CCn1c(C(C)NC(=O)c2ccc(C)cc2)n[nH]c1=S (stereo not drawn)	45	131	i	1.1	-4	103	0.6
COc1cccc(NC(=O)CN2C(=O)NC(C)(CC(C)C)C2=O)c1 (stereo not drawn)	-2	203	i	0.91	-8	104	/
COc1ccc(N2CCCC2=N)c(OC)c1	/	/	i	0.94	/	96	/
COc1ccc(CC(=O)NNC(=O)c2cccnc2)cc1OC	/	/	i	0.96	-4	101	/
Cc1ccc(OCC(=O)Nc2ccc(N3CCN(S(C)(=O)=O)CC3)cc2)c(C)c1	20	122	i	1	-2	114	/
CCOC(=O)c1ccc(N2C(=O)CC(N3CCC(O)(c4ccc(Cl)cc4)CC3)C2=O)cc1 (stereo not drawn)	-9	124	i	0.93	5	100	0.2
CC(=O)NC(Cc1ccc(C)cc1)C(=O)NC1CCN(C(=O)c2cnccn2)CC1 (stereo not drawn)	5	176	i	1.1	0	106	-2.0
CCCCC(=O)Nc1cc(NC(=O)CCCC)cc(C(=O)O)c1	-31	98	i	0.84	-4	103	-1.6
CCn1c(SCC(=O)N2CCC(C(N)=O)(N3CCCCC3)CC2)nc2ccccc2c1=O	39	98	/	/	12	/	-2.8
CCc1nnc(NC(=O)CSc2nnc3scc(-c4ccc(C)cc4)n23)s1	0	71	i	1.1	-5	/	-3.0
COCCNc1cc(C)nc2ccccc12	44	63	i	0.92	-11	126	-1.9
[O-][n+]1c2c(nn1-c1ccccc1)/C(=N/O)CCC2	/	/	i	1.1	-6	102	/
CCOC(=O)Cc1cc(=O)n2[nH]c(C)c(C#N)c2n1	-15	114	i	0.79	2	100	-2.7
CCc1cc(-c2[nH]ncc2-c2ccc3c(c2)OCO3)c(O)cc1O	-4	126	/	/	-2	178	-3.1
Cn1cnnc1SCCC(=O)Nc1ccccc1	-3	116	i	0.85	-2	98	-2.8
O=C(CSc1nnc(Cc2cccs2)n1Cc1ccco1)Nc1cc(Cl)cc(Cl)c1	0	69	i	0.66	-2	96	0.1
C[C@H](NC(=O)c1ccccc1Cl)C(=O)OCC(=O)N1CC2(C)CC1CC(C)(C)C2 (stereo partly drawn)	/	/	i	1	0	97	-1.6
C#CCNC(=O)C1=C[C@H](c2csc3ccccc23)C[C@H](OCc2ccc(CO)cc2)O1	/	/	i	0.84	10	98	/
CC(C)NC(=O)CN(c1cccc([N+](=O)[O-])c1)S(=O)(=O)c1ccccc1	11	41	i	0.85	-1	107	/
COc1ccc(Cl)cc1-c1nc(SCC(=O)NC(C)(C)C)n[nH]1	-6	90	i	0.96	-1	98	/
COc1cccc(C(=O)Nc2ccc3c(c2)C(=O)N(CCC(=O)O)C3=O)c1	-39	105	i	1	-3	95	-0.8
Cn1nnnc1SCc1csc(Nc2ccccc2)n1	3	102	i	1	-1	101	-1.4
CCOc1ccc(N(CC(=O)NCC2CCCO2)S(=O)(=O)c2ccc(Cl)cc2)cc1 (stereo not drawn)	-48	87	i	0.85	4	96	-0.2
CCOC(=O)CCCCC(=O)c1[nH]c(=O)[nH]c1CSc1nc2ccccc2[nH]1	65	104	i	0.92	7	151	0.8
Cc1cc(S(=O)(=O)N(Cc2ccc(C(C)(C)C)cc2)Cc2cccs2)ccc1-n1cnnn1	-76	114	i	1.1	-1	98	0.1
CCc1nc(SCc2cccnc2)[nH]c(=O)c1C	19	91	i	0.77	-1	309*[activator]	-0.1
Cc1oc2nc(SCCCC(=O)NCCO)nc(N)c2c1C	/	/	i	1.1	4	102	-1.2
CC(=O)Nc1ccc(S(=O)(=O)NCc2ccncc2)cc1	/	/	i	0.75	0	131	/
Cc1ccc(NC(=O)N2CCC(c3ccccc3)C2)cc1C (stereo not drawn)	/	/	i	0.98	6	100	/
CCOC(=O)c1cc(C#N)c(N)nc1C	/	/	i	0.99	-6	97	0.3
CCCn1nnc2ccccc2c1=O	/	/	i	0.98	3	112	-2.8
Cc1c(C#N)c2ccccc2n1CC(=O)O	44	127	/	/	3	100	-0.9
NNC(=O)CCn1c2ccccc2c2ccccc21	/	/	i	0.93	-2	107	/
Cn1c(CNc2nc3ccccc3n2CCN2CCCCC2)nc2ccccc21	-32	116	i	0.81	-5	106	-2.5
O=C(NCc1ccncc1)c1cnccn1	14	66	i	0.81	-12	99	-0.8
O=C(CN1CCCC1)Nc1nnc(-c2cccs2)s1	20	102	i	0.82	-13	104	0.0
Cc1ccc2c(COC(=O)CC3Sc4ccccc4NC3=O)cc(=O)oc2c1C (stereo not drawn)	-37	54	i	0.97	-17	100	-0.9
O=C1CC2c3ccccc3C1C1C(=O)N(CCc3ccccc3)C(=O)C21 (stereo not drawn)	/	/	i	0.84	2	103	/
CC(=O)NC1C(=O)Nc2c1cccc2C(F)(F)F (stereo not drawn)	23	145	i	0.9	-8	108	-1.3
COc1ccc(S(=O)(=O)N2CCN(C(=O)c3cc(C)oc3C)CC2)cc1	/	/	i	0.89	2	99	/
CCCn1c(N)[n+](CC(=O)c2ccco2)c2ccccc21	2	57	i	1.1	-10	102	-1.5
CCOC(=O)C(Sc1n[nH]c(N)n1)c1ccccc1 (stereo not drawn)	/	/	i	0.86	-6	101	-2.8
COc1cc2c(cc1OC)C(C)=NCC2	/	/	i	0.8	2	139	/
CC(=O)Nc1ccc(NC(=O)C2CCN(C(=O)c3cccs3)CC2)cc1	/	/	i	0.99	-2	107	/
N/N=C(/Cc1nc2ccccc2[nH]1)c1ccc([N+](=O)[O-])cc1	/	/	i	0.93	5	99	/
CCNC(=O)NC(=O)C(C)Sc1nnc(COc2ccccc2Cl)o1 (stereo not drawn)	-18	85	i	1	-2	95	-1.8
O=c1c2cc(N3CCOCC3)ccc2[nH]c(=S)n1CCCN1CCCCC1	50	137	i	0.86	0	103	0.5
Cc1cc(N)n(-c2ncnc3scc(-c4ccc(Cl)cc4)c23)n1	44	83	i	0.84	2	104	-1.4
Cc1ccccc1Nc1ncnc2c1cnn2Cc1ccccc1	/	/	i	1.2	/	97	/
COc1ccc(/C=C(/C#N)C(=O)Nc2ccccc2C)cc1C(=O)O	3	146	i	1.1	-4	115	-1.4
Cn1nnc(NC(=O)CSc2ccc(Cl)cc2)n1	-32	157	i	0.99	-5	98	-0.9
Cc1cccc(CCN(CC(=O)NC2CCCCC2)C(=O)c2csnn2)c1	/	/	i	1.1	-5	90	/

Next part
Structure	INS promoter inh	INS promoter inh cell count	HSV augment	HSV augment primary fold	PKD1 inh	RGS16-Gao	GALR2 ag
Cc1nn2c(nc(N3CCOCC3)c3ccccc32)c1C=C(C#N)C#N	7	114	i	0.94	0	107	0.0
CCn1c2ccccc2c2cc(NC(=O)c3ccccc3[N+](=O)[O-])ccc21	/	/	i	0.93	4	123	-1.3
O=C(CCC(NC(=O)OCc1ccccc1)C(=O)OCc1ccccc1)NCC(=O)OCc1ccccc1 (stereo not drawn)	/	/	i	1.1	-2	93	-1.5
Cc1ccc(Cn2c(-n3nc(C)cc3C)nc3c2c(=O)[nH]c(=O)n3C)cc1	0	71	i	0.94	-12	91	-0.3
